Arbovirus anti – antivirals against arbovirus infection, primary screen, cell-based, full library, 10K replicate subset. inhibition, % at 10 µM. hit rate 0.37% among 200,000. arbovirus infection cell-based antiviral screen;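 active means inhibition from about 30%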;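 further: bluetongue infection of BSR cells; cell survival read as ATP light after 72 h; 0% = infected wells without compound and 100% = uninfected wells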
Mtb H37Rv – M. tuberculosis H37Rv growth inhibitors, H37Rv strain (AID 1626). M. tuberculosis H37Rv growth inhibition; higher % means a stronger effect. hit rate 0.95% among 220,000. one-dose inhibition, % at 10 µM; IC50 in µM for titrated hits;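 active means confirmed in a dose series; inconclusive means inhibition above 80% but not taken into the dose series; inactive means below 80% or under 30% at every dose of the series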;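 further: bacteria incubated seven days before Alamar blue readout; 0% = bacteria only wells and 100% = bacteria with antibiotic wells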
Mtb betalactam – beta-lactam sensitization of Mtb H37Rv, H37Rv; M. tuberculosis H37Rv growth with meropenem, percent inhibition; hits of this screen are not shown here; inhibition, % at 25 µM; hit rate 0.27% among 330,000; AID 434955, 2010;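 active means about 74% or more and at least 40 points above the plate without the antibiotic, then above 30% in a dose series; inconclusive means first-round hits that could not be retested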;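 further: growth measured after seven days incubation then overnight dye step; 0% = bacteria only wells and 100% = bacteria with antibiotic; twin plates without the antibiotic show which effects depend on it; some results filed as inactive read as strong as hits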
YopH inh – YopH tyrosine phosphatase inhibitors, primary screen, biochemical, fluorescence Ex485/Em525; YopH tyrosine phosphatase [Yersinia enterocolitica]; inhibition, %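 (about 10 µM by stock and volumes)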; hit rate 0.16% among 140,000;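 active means inhibition of 50% or more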;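 further: controls were vehicle for no effect and minimum signal wells for full effect; inactives centre near -20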
RecA intein inh – Mtb RecA intein splicing inhibitors, primary screen, biochemical, fluorescence, HTS | inhibition, %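 (about 9 µM by stock and volumes)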 | hit rate 0.75% among 290,000 | cell-free RecA intein splicing | Protein RecA (Mycobacterium tuberculosis (strain ATCC 25618 / H37Rv)), P9WHJ3 | AID 2221, 2009; in the data active means inhibition above about 30%; inconclusive means no clear call, values can overlap the other calls;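 further: 0% = vehicle wells and 100% = reference inhibitor control wells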
Target sequence (P9WHJ3 whole entry, looked up): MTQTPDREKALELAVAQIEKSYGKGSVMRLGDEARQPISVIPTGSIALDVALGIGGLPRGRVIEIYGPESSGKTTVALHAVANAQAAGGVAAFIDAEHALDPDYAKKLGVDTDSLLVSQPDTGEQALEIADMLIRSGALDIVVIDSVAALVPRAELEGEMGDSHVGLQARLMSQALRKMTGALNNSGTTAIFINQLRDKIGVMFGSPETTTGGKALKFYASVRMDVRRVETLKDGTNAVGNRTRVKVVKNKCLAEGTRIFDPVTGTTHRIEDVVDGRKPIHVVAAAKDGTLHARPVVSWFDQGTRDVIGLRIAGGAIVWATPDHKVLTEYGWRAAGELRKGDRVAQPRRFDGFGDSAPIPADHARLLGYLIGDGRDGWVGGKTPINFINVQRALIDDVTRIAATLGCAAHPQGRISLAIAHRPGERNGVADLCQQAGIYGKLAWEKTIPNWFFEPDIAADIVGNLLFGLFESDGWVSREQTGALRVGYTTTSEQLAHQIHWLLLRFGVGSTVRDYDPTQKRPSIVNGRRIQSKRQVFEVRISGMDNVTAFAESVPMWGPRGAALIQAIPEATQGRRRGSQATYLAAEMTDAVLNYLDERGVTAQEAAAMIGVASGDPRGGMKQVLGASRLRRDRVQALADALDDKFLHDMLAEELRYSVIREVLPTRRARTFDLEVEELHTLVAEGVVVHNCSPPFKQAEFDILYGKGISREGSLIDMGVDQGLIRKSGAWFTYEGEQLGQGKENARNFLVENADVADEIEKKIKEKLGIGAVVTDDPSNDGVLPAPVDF
Arbovirus anti repeat – second read-out of Arbovirus anti, no call of its own (marks repeat the call); inhibition, %; measured here: 10K subset replicate screen; many hits read low in the repeat;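 first of two repeat runs on a subset; 0% = infected and 100% = uninfected wells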
* = called active by the depositor; ? = inconclusive; · = no result given.

A first look, 17 compounds:
SMILES	Arbovirus anti	Mtb H37Rv	Mtb betalactam	YopH inh	RecA intein inh	others
O=C(Nc1ccccc1C(=O)NCCCn1ccnc1)c1ccc(Cl)cc1Cl	11	-5%	66	-17	6.3
C/C(=N\NC(=O)NC1CCCCC1)c1ccco1	0	-5%	1	·	-2.8
Cc1ccc([C@H]2C(C#N)=C(N)Oc3cc(C)oc(=O)c32)o1	-3	-3%	64	·	6.9
O=C(COc1ccc2c3c(c(=O)oc2c1)CCC3)NCCN1CCOCC1	·	·	4	·	-2.3
CCOc1ccc(NC(=O)C2CCCN(C(=O)NCc3ccccc3)C2)cc1 (centres undefined)	5	-7%	-2	-10	1.9
Cc1ccc2cc(N)ccc2n1	2	?	·	·	·
CCOC(=O)C1CCN(CCC(=O)Nc2cccc(C)c2)CC1	-2	-6%	-2	·	-1.3
COC(=O)c1cc(C#N)c(OC)nc1C	7	4%	-2	·	5.0
COc1ccc(-c2csc(NCCc3nc4cc(Cl)c(N5CCCCC5)cc4n3CCOCCO)n2)cc1	·	0%	87	·	1.3
Cc1ccc(CCNC(=O)c2nnn(-c3cccc(C)c3)c2N)cc1	13	5%	33	-49	1.3
COc1ccc(/C=C/C(=O)NC2CCCCCC2)cc1S(=O)(=O)N1CCOCC1	2	4%	12	-26	1.1
O=C1CC(c2ccco2)CC(O)=C1C=NCCN1CCNCC1 (centres undefined)	-3	-9%	3	-23	0.9	Arbovirus anti repeat=1
COc1ccc(-n2nc(C(=O)N3CCCCC3)c(C)c(C#N)c2=O)cc1	6	-1%	-6	·	24
NC(=S)N/N=C/c1ccc(-n2nncc2-c2ccc(Cl)cc2)cc1	·	·	68	·	0.2
COc1ccc(Cn2c(=S)[nH]c3ccsc3c2=O)cc1	2	-2%	7	-7	-8.1
CC(Cc1nnc(SCC(=O)O)n1N)c1ccccc1 (centres undefined)	·	·	2	·	-0.6
CSc1nnc2ccc(-c3ccccn3)nn12	4	0%	-8	·	-3.6

This part in full, from the first entry:
SMILES	Arbovirus anti	Mtb H37Rv	Mtb betalactam	YopH inh	RecA intein inh	others
O=C(Nc1ccccc1C(=O)NCCCn1ccnc1)c1ccc(Cl)cc1Cl	11	-5%	66	-17	6.3
C/C(=N\NC(=O)NC1CCCCC1)c1ccco1	0	-5%	1	·	-2.8
Cc1ccc([C@H]2C(C#N)=C(N)Oc3cc(C)oc(=O)c32)o1	-3	-3%	64	·	6.9
O=C(COc1ccc2c3c(c(=O)oc2c1)CCC3)NCCN1CCOCC1	·	·	4	·	-2.3
CCOc1ccc(NC(=O)C2CCCN(C(=O)NCc3ccccc3)C2)cc1 (centres undefined)	5	-7%	-2	-10	1.9
Cc1ccc2cc(N)ccc2n1	2	?	·	·	·
CCOC(=O)C1CCN(CCC(=O)Nc2cccc(C)c2)CC1	-2	-6%	-2	·	-1.3
COC(=O)c1cc(C#N)c(OC)nc1C	7	4%	-2	·	5.0
COc1ccc(-c2csc(NCCc3nc4cc(Cl)c(N5CCCCC5)cc4n3CCOCCO)n2)cc1	·	0%	87	·	1.3
Cc1ccc(CCNC(=O)c2nnn(-c3cccc(C)c3)c2N)cc1	13	5%	33	-49	1.3
COc1ccc(/C=C/C(=O)NC2CCCCCC2)cc1S(=O)(=O)N1CCOCC1	2	4%	12	-26	1.1
O=C1CC(c2ccco2)CC(O)=C1C=NCCN1CCNCC1 (centres undefined)	-3	-9%	3	-23	0.9	Arbovirus anti repeat=1
COc1ccc(-n2nc(C(=O)N3CCCCC3)c(C)c(C#N)c2=O)cc1	6	-1%	-6	·	24
NC(=S)N/N=C/c1ccc(-n2nncc2-c2ccc(Cl)cc2)cc1	·	·	68	·	0.2
COc1ccc(Cn2c(=S)[nH]c3ccsc3c2=O)cc1	2	-2%	7	-7	-8.1
CC(Cc1nnc(SCC(=O)O)n1N)c1ccccc1 (centres undefined)	·	·	2	·	-0.6
CSc1nnc2ccc(-c3ccccn3)nn12	4	0%	-8	·	-3.6
Cc1nc2cc(-c3cccs3)nn2c(NCC(C)(C)CN(C)C)c1C	-7	3%	1	·	2.1
Nc1cc(OC(=O)c2cccs2)nn1S(=O)(=O)c1ccc(F)cc1	2	6%	-6	-25	9.1
O=C(CN1CCOCC1)Nc1cc(C(F)(F)F)ccc1Cl	0	1%	-1	·	·
CCN=C1S/C(=C\c2cn(CC(=O)NCCOC)c3ccccc23)C(=O)N1CC	-9	2%	6	·	·
COC(=O)c1cc(S(=O)(=O)Nc2ccsc2C(=O)OC)oc1C	·	1%	-3	·	-1.5
COc1ccc(Cl)cc1N1C(=O)C2CCCN2C1c1ccc(F)cc1 (centres undefined)	-3	0%	-5	-51	-0.2
O=[N+]([O-])c1ccc(O)c(N=Cc2sc3ccccc3c2O)c1	-6	6%	6	10	-7.2
CC(=O)CC(=O)Nc1ccn(-c2ccccc2)n1	-4	-9%	64	-5	-0.4
CC(=O)N1CCc2cc(S(=O)(=O)NCC(=O)NCc3ccc(Cl)cc3)ccc21	·	·	5	·	-3.3
CCC1CCCCN1S(=O)(=O)c1ccc2[nH]c(=O)ccc2c1 (centres undefined)	·	·	-5	·	2.5
CNC(=S)NNC(=O)c1cn(C)nc1C	2	-3%	-1	·	-1.2
CCCC(c1nnnn1Cc1cccs1)N1CCN(C2CCCC2)CC1 (centres undefined)	5	7%	-1	-15	0.8
O=C1C(Cl)=C(Nc2ccccc2O)C(=O)N1c1ccccc1	-12	17%	93	-35	·	Arbovirus anti repeat=-2
Cc1ccccc1C(=O)NC(C)c1ccc2c(c1)CCCC2 (centres undefined)	6	1%	0	-10	5.8
Cc1cccc(NS(=O)(=O)c2cc(C(=O)OC(C)C(=O)NCc3ccc4c(c3)OCO4)ccc2C)c1 (centres undefined)	15	8%	2	-15	3.6
COc1ccc2oc(C(=O)N(C)CCOc3ccccc3)c(C)c2c1	·	·	-13	·	2.4
CCOc1ccc(C(C(=O)NCCOC)N(CCOC)C(=O)CCC(=O)Nc2ccccn2)cc1 (centres undefined)	·	·	0	·	0.9
Cc1ccc(CNC(=O)CNS(=O)(=O)c2ccc3c(c2)C(C)(C)C(=O)N3C)cc1	·	·	-2	·	1.8
CCOc1ccc2c(=O)c(Oc3ccccc3)c(C)oc2c1	0	·	-10	-39	1.4
O=C(O)c1ccc(Cl)c(N2C(=O)Nc3ccccc3N2O)c1	6	-3%	5	·	0.7
CCOC(=O)N1CCC(NC(=O)c2ccc3c(c2)N=C(C)c2c(C)ccc(C)c2S3)CC1	·	·	66	·	13
O=C(CCN1C(=O)C2C3C=CC(C3)C2C1=O)N1CCN(c2ccccc2Cl)CC1 (centres undefined)	8	2%	-19	-26	0.0
O=C(Nc1ccc(O)cc1)c1c(O)c2c([nH]c1=O)CCCC2	-11	3%	·	·	2.3
CCOc1ccc2nc(CN3CCN(Cc4ccsc4)C(CCO)C3)ccc2c1 (centres undefined)	17	-2%	-7	·	2.0
Clc1ccc(CCNc2nc3ccccc3s2)cc1	4	8%	15	2	4.9
Cc1cc(C)nc(N(C#N)CN2C(=O)c3ccccc3C2=O)n1	-2	2%	2	-37	-1.3
COc1ccc(OCC(=O)N/N=C\c2ccco2)cc1	-1	3%	5	·	0.4
O=C(CNC(=O)c1ccc(Cl)cc1)N/N=C/C=C/c1ccccc1	-7	0%	-1	-1	1.6
CC1=C(C(N)=O)C(c2cccc(OCc3ccccc3)c2)n2nnnc2N1 (centres undefined)	-3	5%	20	-13	-2.1
COc1ccc(CN2CCNC(=O)C2CC(=O)NC2CCC2)c(OC)c1 (centres undefined)	·	·	-6	·	-1.0
COc1ccc(-c2onc3ccc(C(C)=O)cc23)cc1	·	·	2	·	-242
Cc1cccc(-n2ncc3c(N)ncnc32)c1	6	-14%	3	-21	-4.4
CCOc1ccc(CCNC(=O)CCc2nc(-c3ccc(OC)cc3)no2)cc1OCC	6	-5%	-3	-11	1.9
Cc1cccc(Nc2nccc(N(C)C)c2C#N)c1	3	8%	-1	·	-1.8
O=C(c1sc2ccccc2c1Cl)N(Cc1ccccc1Cl)C1CCS(=O)(=O)C1 (centres undefined)	-3	1%	-11	-18	3.2
Cc1ccccc1S(=O)(=O)Cc1ccc(C(=O)NCCc2ccccc2)o1	·	·	2	·	-1.0
COc1cc(C(=O)OC2CC3CCC2(C)C3(C)C)ccc1OC(C)=O (centres undefined)	-21	-4%	-10	·	·
COc1ccc(/C=N/N=C2/NC(=O)C(CC(=O)NC(N)=O)S2)cc1 (centres undefined)	-3	-6%	-4	·	-1.2
Cc1ccc(NC(=O)C2CCCN(c3ncnc4c3nc3n4CCCCC3)C2)cc1Cl (centres undefined)	·	·	98	·	9.3
CC(C)N1CC(C(=O)Nc2ccc(Cl)c([N+](=O)[O-])c2)CC1=O (centres undefined)	·	·	-7	·	-2.0
Cc1ccc(NC(=O)CO/N=C/c2ccc(N(C)C)cc2)cc1	-5	?	98	-16	·
CCOC(=O)c1sc2ncnc(N3CCN(CC)CC3)c2c1C	2	3%	-1	·	-2.1
CCNc1nc(NCC)nc(SCCOC(=O)Nc2ccc(Cl)cc2Cl)n1	11	6%	1	-29	-2.1

(next part)
SMILES	Arbovirus anti	Mtb H37Rv	Mtb betalactam	YopH inh	RecA intein inh	others
Cc1c(Cl)cccc1NS(=O)(=O)c1ccc(-c2ccc(=O)[nH]n2)o1	·	·	0	·	-4.8
Cc1ccc(S(=O)(=O)CCC(=O)OCc2cc(C)ccc2C)cc1	·	·	95	·	3.5
O=C(COc1cccc2ccccc12)NNC(=O)C1CCCO1 (centres undefined)	-1	-4%	-7	-15	2.7
CCc1ccc(/C=C2\C(=N)N3N=C(CC(=O)N4CCCCC4)SC3=NC2=O)cc1	·	·	-2	·	2.1
Cc1nn(CC(=O)OC(C)C(=O)Nc2ccccc2[N+](=O)[O-])c(C)c1[N+](=O)[O-] (centres undefined)	0	-18%	2	2	0.5
O=C(NCCNC(=O)C(F)(F)F)c1ccncc1	·	-16%	2	·	0.9
CCc1nnc(NC(=O)c2ccc(-c3ccc(F)cc3)o2)s1	-14	8%	-4	·	0.1
Cc1ccc(S(=O)(=O)N2CCC(=O)N(CCOC(=O)Nc3cccc(Cl)c3)CC2)cc1	1	5%	-2	-22	-2.0
CCC(C)(C(=O)Nc1ccc2c(c1)OCCO2)N(C(C)=O)c1ccc(C(N)=O)cc1 (centres undefined)	-5	-5%	?	-32	-3.9
CC(=O)Nc1ccc2c(c1)C(C)(C)C(C)N2C (centres undefined)	11	-4%	29	·	-4.4
OC(CNc1ccccc1)COc1ccc(OCC(O)CNc2ccccc2)cc1 (centres undefined)	-38	?	100	-22	3.0
COC(=O)c1sc(NC(=O)C2CCCO2)c(C(=O)OC)c1C (centres undefined)	-2	10%	-1	-27	-0.8
Cc1ccccc1Cn1nc(C)c(NC(=O)/C=C/c2cnn(C)c2)c1C	7	6%	0	-24	1.0
CCOC(=O)N1CCN(c2c(NCCN3CCN(c4ccccc4F)CC3)c(=O)c2=O)CC1	·	-13%	-1	·	-0.6
Cc1ccc(S(=O)(=O)N2CCOCC2)cc1NC(=O)CSc1nc(N)cc(=O)[nH]1	·	12%	-1	·	-0.8
CC(=O)c1c(C)[nH]c(C(=O)Nc2ccc(C)cc2Br)c1C	·	·	6	·	0.0
Cc1ccc(Nc2c(N)c(=O)oc3ccccc23)cc1	-10	-4%	0	-16	2.0
COc1cccc(-c2nn[nH]n2)c1O	4	-6%	3	-17	-2.6
CCOC(=O)C1CN(S(=O)(=O)c2ccc(OC)cc2)c2ccccc2O1 (centres undefined)	·	·	7	·	-3.3
COc1cc(CC(=O)Oc2ccc3c(c2)OCO3)cc(OC)c1OC	6	7%	13	-42	-2.0
COC(C[C@@H]1O[C@H]1[C@H](O)[C@@H](C)OCc1ccccc1)OC	·	-4%	-6	·	-2.5
COc1ccc(Oc2nc3ccccc3nc2C(F)(F)F)cc1	2	14%	-2	-38	2.7
O=C(Nc1cccc(S(=O)(=O)N2CCOCC2)c1)c1cc([N+](=O)[O-])ccc1N1CCOCC1	·	·	-2	·	-2.9
CC(=O)c1c(C(=O)O)c2ccccc2[nH]c1=O	·	-1%	1	·	-2.3
CCn1c(SCC(=O)NC2CCCCC2)nnc1C(CO)NC(=O)c1ccccc1 (centres undefined)	·	·	-2	·	-2.5

Source: PubChem (several laboratories)

An excerpt; count on the stated rates, not on these rows.
